Assay outcomes (PubChem BioAssay)
hNpr1 antagonist: human Npr1 receptor antagonism | 76,000 tested, 1.6% active | AID 1347048 | Potency, µM (top dose mostly 46.3 µM), for inactives: at the highest dose activity change, negative = inhibition, hits mostly inhibitors | P16066 | HEK293 hNpr1 GloSensor cGMP, ANP-stimulated luminescence; active = well fitted inhibition curve with a large enough effect; inconclusive = small, poorly fitted or top-dose-only effect; inactive = no such curve, though single readings can be large or run the other way;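 also: nearly all actives have a fitted effect of over 60% in size; nearly all hits also lower the signal before the agonist is added; a reference antagonist and vehicle were the controls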
Target sequence (P16066 whole entry, looked up): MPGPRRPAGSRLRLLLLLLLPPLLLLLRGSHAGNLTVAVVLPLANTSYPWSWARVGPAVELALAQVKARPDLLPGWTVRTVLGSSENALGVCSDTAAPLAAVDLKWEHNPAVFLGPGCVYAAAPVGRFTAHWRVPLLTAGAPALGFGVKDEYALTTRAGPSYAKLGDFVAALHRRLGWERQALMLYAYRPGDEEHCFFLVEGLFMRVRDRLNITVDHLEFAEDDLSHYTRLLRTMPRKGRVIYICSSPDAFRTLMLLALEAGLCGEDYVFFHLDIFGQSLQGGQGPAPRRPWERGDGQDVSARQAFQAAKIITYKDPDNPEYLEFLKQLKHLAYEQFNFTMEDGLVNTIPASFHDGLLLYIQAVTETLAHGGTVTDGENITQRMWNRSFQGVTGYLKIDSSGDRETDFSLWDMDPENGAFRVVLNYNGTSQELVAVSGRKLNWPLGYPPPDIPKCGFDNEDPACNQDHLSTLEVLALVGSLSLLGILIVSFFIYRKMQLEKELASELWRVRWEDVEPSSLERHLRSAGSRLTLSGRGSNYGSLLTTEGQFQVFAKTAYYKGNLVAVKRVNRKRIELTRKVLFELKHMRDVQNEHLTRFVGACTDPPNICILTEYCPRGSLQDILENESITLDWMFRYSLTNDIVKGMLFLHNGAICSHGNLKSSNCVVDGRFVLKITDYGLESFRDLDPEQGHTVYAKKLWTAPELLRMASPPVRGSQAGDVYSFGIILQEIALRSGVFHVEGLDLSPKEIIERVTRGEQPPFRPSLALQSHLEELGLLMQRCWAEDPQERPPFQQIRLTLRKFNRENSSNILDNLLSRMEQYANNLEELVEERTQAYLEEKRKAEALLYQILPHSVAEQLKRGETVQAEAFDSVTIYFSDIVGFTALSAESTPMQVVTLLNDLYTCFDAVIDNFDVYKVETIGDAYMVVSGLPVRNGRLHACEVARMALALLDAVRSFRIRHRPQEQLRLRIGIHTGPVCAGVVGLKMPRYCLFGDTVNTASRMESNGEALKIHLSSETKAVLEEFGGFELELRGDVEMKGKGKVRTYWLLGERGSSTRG
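Compound pre-incubated 30 min at room temperature on GloSensor-loaded HEK293 cells stably carrying hNpr1 and the pGS-40F cGMP biosensor. Stimulation uses hNppA at 0.1 nM final; luminescence is taken at baseline and 20 min post-agonist.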
The depositor's hits bear a star; & = joins results of further samples; [ ] = dose if it differs, or a comment. % is scaled to controls: 0 for no effect and ±100 for the full control effect; potency is read from the fitted curve at half-maximal effect. These rows are one share of the data (hit frequency here may not be typical).

CC[C@@]1(C(=O)O)C[C@H](C(=O)NCc2cccnc2)[C@H](c2ccc(F)cc2)N1C was read as hNpr1 antagonist 1%.
For COc1cccc(CNC(=O)CCC2CCN(C(=O)c3ccccc3)CC2)c1 the results were hNpr1 antagonist -9%.
Screening CC(C)n1cc2cc(C(=O)N3CCN(Cc4ccc5c(c4)OCO5)CC3)sc2c1 returned hNpr1 antagonist -9%.
Screening O=C(O)CCC(=O)NC[C@H]1Cn2c(-c3ccc(F)cc3)cnc2CO1 returned hNpr1 antagonist 5%[70.6 µM].
Screening CN1CC2(CCN(C(=O)c3ccnn3C)CC2)CC1C(=O)N1CCOCC1 (stereo unspecified) returned hNpr1 antagonist 10%.
COCC1CN(C)CC12CCN(C(=O)Cc1ccc(OC)cc1)CC2 (stereo unspecified) was read as hNpr1 antagonist -2%.
`CN(C)[C@@H]1CN(C(=O)c2cccs2)CC[C@@H]1CO` gave hNpr1 antagonist 14%.
`CC(C)C[C@@H](NC(=O)C1=C[C@@H](NC(=O)Cc2cccs2)[C@@H](O)[C@H](O)C1)C(N)=O` gave hNpr1 antagonist 9%[70.6 µM].
`COc1ccccc1CN(C)C1CCc2ccccc21` (stereo unspecified) gave hNpr1 antagonist -3%&5%[70.6 µM].
Screening CC(=O)N1CCC(C(=O)N[C@H]2CCN3C(=O)N(c4cccc(C(F)(F)F)c4)C(=O)[C@@H]3C2)CC1 returned hNpr1 antagonist -1%.
COc1cccc(CC(=O)N2CCCC(CN3CCCC3)CC2)c1 (stereo unspecified) was read as hNpr1 antagonist -17%.
O=C1Cc2c(-c3ccccc3Oc3ccccc3)n[nH]c2CN1CCc1ccncc1 was read as hNpr1 antagonist -13%[70.6 µM].
Cc1cc2nc(CCNC(=O)[C@H]3CCC[C@@H](O)C3)[nH]c2cc1C was read as hNpr1 antagonist 3%.
Screening CN(C)[C@H]1CCCCN(CC2CCC(N)CC2)C1 (stereo partly specified) returned hNpr1 antagonist -1%.
Screening COc1ccc(OC)c(CNC(=O)C2(C)CCCCC(=O)N2)c1 (stereo unspecified) returned hNpr1 antagonist 0%.
Cc1nc(C)c(C(=O)N2CCC3(CC2)CCC(O)(CN(C)C)CC3)s1 was read as hNpr1 antagonist -1%.
Screening CC1(c2ccccc2)N(Cc2ccccc2)C(=O)OC12CCN(C(=O)c1cccc(O)c1)CC2 (stereo unspecified) returned hNpr1 antagonist -5%.
Screening O=C(Nc1ccccc1)O[C@@H]1CO[C@H]2[C@@H]1OC[C@@H]2NC(=S)Nc1ccccc1 returned hNpr1 antagonist -5%[70.6 µM].
`O=C(c1cc(F)ccc1F)N1CCCCC1c1nc(-c2cnccn2)n[nH]1` (stereo unspecified) gave hNpr1 antagonist -2%.
O=C(NCc1cccs1)c1nc(-c2ccc(F)cc2)c2cnccn12 was read as hNpr1 antagonist -5%[70.6 µM].
Screening COCCC1(NS(=O)(=O)c2ccccc2)CCN(S(C)(=O)=O)CC1 returned hNpr1 antagonist 4%.
For COCCOCC1(CNCc2nccn2C)C[C@@H](O)[C@@H](O)C1 (stereo partly specified) the results were hNpr1 antagonist 3%[70.6 µM].
For CCc1noc(-c2cn(C3CCN(C(=O)c4cccc(N(C)C)c4)CC3)nn2)n1 the results were hNpr1 antagonist -6%.
Cc1ccc(CN2CC[C@@H]3[C@H]2C(=O)NC[C@H](CCC(=O)N2CCCC2)N3C)cc1 was read as hNpr1 antagonist 2%[70.6 µM].
Screening Cc1nc2c(c(-c3ccc(O)cc3)n1)CN(C(=O)c1ccccc1)CC2 returned hNpr1 antagonist -12%[70.6 µM].
`Cc1cc(C(=O)N2CCCC3(C2)Nc2cccnc2NC3=NCc2ccccc2)nn1C` (stereo unspecified) gave hNpr1 antagonist -2%.
CN1CCC(N2CC[C@@H](CO)N(C)c3cccnc3C2)CC1 was read as hNpr1 antagonist -2%[70.6 µM].
For Cc1cc(C(=O)N[C@@H]2C[C@H](Cn3cc(CN(C)C)nn3)[C@@H](O)[C@H]2O)c(C)o1 the results were hNpr1 antagonist 4%[70.6 µM].
`O=C(Nc1ccccc1)N1CCC2(CCCCO2)CC1` gave hNpr1 antagonist 3%.
O=C(c1ccncc1)N1CCC(Nc2cccnc2)C1 (stereo unspecified) was read as hNpr1 antagonist 1%.
`COC(=O)[C@H](Cc1ccc(OC)cc1)NC(=O)[C@H]1CN(S(=O)(=O)c2ccccc2)CCN1C(C)=O` gave hNpr1 antagonist 1%.
For OCc1cccc(-c2ccc3ncc(Nc4ccc(OCCN5CCCC5)cc4)n3n2)c1 the results were hNpr1 antagonist 6%[70.6 µM].
COc1ccc(C(=O)N2CC[C@H]3NC(=O)N(c4ccc(C(C)C)cc4)C(=O)[C@H]32)cc1 was read as hNpr1 antagonist 3%[70.6 µM].
`CN(Cc1nc2c(s1)CCCC2)C(=O)CN1C(=O)CSc2ccccc21` gave hNpr1 antagonist 4%.
O=C(N1CCCC1)C1(CCO)CCN(c2ncccn2)C1 (stereo unspecified) was read as hNpr1 antagonist -3%.
O=C(NCCc1noc(-c2ccccc2)n1)c1ccc(Cl)s1 was read as hNpr1 antagonist inconclusive.
For Cc1nnc2n1CCC(N(C)C(=O)NCCc1ccccc1)CC2 (stereo unspecified) the results were hNpr1 antagonist -2%.
For O=C1CC2(CCN(C(=O)c3ccc(CSc4ccccc4)o3)C2)C(=O)N1 (stereo unspecified) the results were hNpr1 antagonist 5%.
For COCCc1nncn1C1CCN(C(=O)c2ccc(C)c(C)c2)CC1 the results were hNpr1 antagonist -1%.
For COc1ccc(C(=O)N2CCCn3cc(-c4ccccc4)nc32)cn1 the results were hNpr1 antagonist -4%.

Molecules listed so far that contain two or more sulfur atoms (two):
Screening COCCC1(NS(=O)(=O)c2ccccc2)CCN(S(C)(=O)=O)CC1 returned hNpr1 antagonist 4%.
`CN(Cc1nc2c(s1)CCCC2)C(=O)CN1C(=O)CSc2ccccc21` gave hNpr1 antagonist 4%.

Filtered by structure, the compounds so far with a furan ring, fused or not (two)
For Cc1cc(C(=O)N[C@@H]2C[C@H](Cn3cc(CN(C)C)nn3)[C@@H](O)[C@H]2O)c(C)o1 the results were hNpr1 antagonist 4%[70.6 µM].
For O=C1CC2(CCN(C(=O)c3ccc(CSc4ccccc4)o3)C2)C(=O)N1 (stereo unspecified) the results were hNpr1 antagonist 5%.

Continuation:
Screening O=C(C[C@@H]1CCNC[C@@H]1Cc1cc(CC2CCCCC2)on1)NC1CC1 returned hNpr1 antagonist 2%[70.6 µM].
`COc1ccc(NC(=O)C2CN(S(C)(=O)=O)CC23CCCCC3)c(C)c1` (stereo unspecified) gave hNpr1 antagonist 0%.
For O=C(c1cc2cc(Cl)ccc2[nH]1)N1C[C@@H](CO)[C@H](c2ccccn2)C1 the results were hNpr1 antagonist -17%.
For Cc1cn2nc(C(=O)NCc3ccc(C(C)C)cc3)cc2c(N2CCCC2)n1 the results were hNpr1 antagonist 0%.
`CSc1cccc(NC(=O)Cn2nc3n(c2=O)CCCCC3)c1` gave hNpr1 antagonist 0%.
`COc1ccc(CN2CCC3(CC2)OC(=O)N(Cc2ccccc2C#N)C3(C)c2ccccc2)cc1O` (stereo unspecified) gave hNpr1 antagonist -19%.
`CCNC(=O)NC1(CCOC)CCN(C(=O)c2ccoc2)CC1` gave hNpr1 antagonist 9%.
Cc1ncc2c(c1CNC(=O)c1ccccc1F)CCN(C(=O)Cc1cccc(F)c1)C2 was read as hNpr1 antagonist 2%.
O=C(Cc1cccc(F)c1)Nc1ccc2ncnc(N3CCCCC3)c2c1 was read as hNpr1 antagonist -3%.
For CCN1c2cc(C(=O)NCc3ccccc3C(F)(F)F)ccc2C(=O)N2CCCCCC21 (stereo unspecified) the results were hNpr1 antagonist 0%.
Screening CN1CCCC2(CC1)CCN(C(=O)c1c3c(nn1C)CCCC3)CC2 returned hNpr1 antagonist -1%.
For COc1ccc(C(=O)N2CCCC(c3nc(-c4ccccc4)no3)CCNC(=O)CC2)c(OC)c1 (stereo unspecified) the results were hNpr1 antagonist -3%.
`COc1cc(F)ccc1-c1ccnc2nc(C3CCCO3)nn12` (stereo unspecified) gave hNpr1 antagonist 0%.
For CCC(Cn1cnc(-c2ccccc2)c1-c1ccc(C#N)cc1)N1CCN(C)CC1 (stereo unspecified) the results were hNpr1 antagonist 11µM*.
`COCc1ccc2c(c1)c(OC(C)(C)C(=O)NCCc1ccccn1)nn2Cc1ccccc1` gave hNpr1 antagonist -11%.
`CCc1ccc(C(=O)NCc2nnc3cc(-c4nc(C(C)C)no4)ccn23)cc1` gave hNpr1 antagonist 6%.
CC(C)NC(=O)N1C[C@@H](Oc2ccccc2)C[C@@H]1C(=O)N1CCOCC1 was read as hNpr1 antagonist 7%.
Screening CCOc1ccc(CN2CCN(c3ncnc4[nH]ccc34)CC2CCO)cc1 (stereo unspecified) returned hNpr1 antagonist -1%.
CCOC(=O)C1(Cc2ccccc2Cl)CCN(Cc2cccnc2)CC1 was read as hNpr1 antagonist -8%.
Cc1ccc(C(=O)NC2CCCN(c3nc4ncccc4o3)C2)cc1 (stereo unspecified) was read as hNpr1 antagonist 0%[70.6 µM].
Screening COCC(=O)NC1CCC12CCN(C(=O)CCC1CCCC1)CC2 (stereo unspecified) returned hNpr1 antagonist 4%.
For CCc1cc(=O)n(CC(=O)NCc2cccc(OC)c2)c(N2CCOCC2)n1 the results were hNpr1 antagonist 2%.
`CCOc1ccccc1NC(=O)CC1CCCN(c2cnn(CC3CC3)c(=O)c2)C1` (stereo unspecified) gave hNpr1 antagonist 0%.
`COc1cccc(CN2CCCC3(C2)NC(=O)c2ccccc2O3)c1` (stereo unspecified) gave hNpr1 antagonist 0%[70.6 µM].
O=C(c1cnccn1)N1CCC(Cc2nc(C3CCOCC3)no2)CC1 was read as hNpr1 antagonist 0%.
`COc1ccc(CN2C(=O)[C@@H]3C[C@@H](CN3C(C)C)Oc3ccccc32)cc1` gave hNpr1 antagonist -2%[70.6 µM].
`Cc1cn2nc(C(=O)N3CCC(NC(=O)COc4ccc(F)cc4)CC3)cc2c(=O)[nH]1` gave hNpr1 antagonist 0%.
`O=c1[nH]c(C2CCN(Cc3cccc4ccccc34)CC2)nn1Cc1ccccc1` gave hNpr1 antagonist 9%.
`COc1cccc(C(=O)N[C@@H]2CN(c3ncccn3)C[C@H]2CN(C)C)c1` gave hNpr1 antagonist 1%.
CC(=O)N[C@@H]1CN(C(=O)c2csc(-c3cccnc3)n2)C[C@H]1C(C)C was read as hNpr1 antagonist -1%.
Screening CS(=O)(=O)N1CCCN(C(=O)C2CCC2)CCNC(=O)CC1c1ccccc1 (stereo unspecified) returned hNpr1 antagonist -2%.
For COCCN1Cc2ccc(Nc3ccc(OC)cc3)nc2C(C)(C(=O)NCC2CC2)C1 (stereo unspecified) the results were hNpr1 antagonist -2%[70.6 µM].
`CCc1ccc(C(=O)N2CCC([C@@H]3CNC[C@H]3CO)CC2)cc1` gave hNpr1 antagonist 14%.
For O=C1CCC2(CCN1CC1CC1)CCN(C(=O)c1ccc3c(c1)OCO3)CC2 the results were hNpr1 antagonist -12%.
O=C(Nc1ccccc1F)N1CC(c2nnc(-c3ccncc3)o2)C2(CCOCC2)C1 (stereo unspecified) was read as hNpr1 antagonist -3%.
`COC(=O)[C@@H]1Cc2c([nH]c3ccccc23)[C@@H]2C[C@@H](NCCNC(C)=O)C[C@@H](c3cccc(Cl)c3)N12` gave hNpr1 antagonist 2%.
Screening O=C(C[C@@H]1O[C@H](CNC(=O)Nc2ccccc2)[C@@H](O)[C@H]1O)NC1CC1 returned hNpr1 antagonist -4%[70.6 µM].
CCN1c2cc(C(=O)Nc3cccc(C)c3)ccc2C(=O)N2CCCC21 (stereo unspecified) was read as hNpr1 antagonist 6%.
Screening O=C(CN1C(=O)NC(c2ccc(Cl)cc2)C2=C1COC2=O)Nc1cc(F)ccc1F (stereo unspecified) returned hNpr1 antagonist -17%.
For CCOC(=O)C1=CN(CC(=O)NC(C)CCc2ccccc2)S(=O)(=O)N=C1C (stereo unspecified) the results were hNpr1 antagonist -6%.
For O[C@@H]1C[C@@H](c2nc(-c3ccc(C(F)(F)F)cc3)no2)N(Cc2cccc(OC(F)(F)F)c2)C1 the results were hNpr1 antagonist 2%.
COCCN1CCCCCC(O)c2cc(C(=O)N3CCOCC3)ccc21 (stereo unspecified) was read as hNpr1 antagonist 1%.
For CCC(NC(=O)Cn1nc(C)n(CCc2ccccc2)c1=O)c1ncnn1C (stereo unspecified) the results were hNpr1 antagonist 6%.
Screening CNC(=O)[C@@H]1C[C@H](Oc2ccccc2)CN1S(=O)(=O)N(C)C returned hNpr1 antagonist 3%.
For COc1cc(NC(=O)NC[C@H]2O[C@@H](CO)[C@@H](O)[C@H]2N2CCN(c3ccccc3)CC2)cc(OC)c1 the results were hNpr1 antagonist 1%.
`Cc1ccc(CNc2ccc3nnc(C(C)C)n3n2)o1` gave hNpr1 antagonist 1%.
O=C(c1cccnc1)N1CCCC(c2noc(COc3ccccc3)n2)C1 (stereo unspecified) was read as hNpr1 antagonist -14%.
For CC(=O)NC1(C)CCN(Cc2ccc(-c3ccccc3Oc3ccccc3)cc2)C1 (stereo unspecified) the results were hNpr1 antagonist -4%[70.6 µM].
Screening OC(COc1ccccc1CNCCc1ccccc1)CN1CCSCC1 (stereo unspecified) returned hNpr1 antagonist 0%.
For CCC1(O)CCC12CCN(C(=O)c1ccncc1)CC2 (stereo unspecified) the results were hNpr1 antagonist 4%.

Fetched one by one from above:
For O[C@@H]1C[C@@H](c2nc(-c3ccc(C(F)(F)F)cc3)no2)N(Cc2cccc(OC(F)(F)F)c2)C1 the results were hNpr1 antagonist 2%.
For CCC(NC(=O)Cn1nc(C)n(CCc2ccccc2)c1=O)c1ncnn1C (stereo unspecified) the results were hNpr1 antagonist 6%.
Screening CNC(=O)[C@@H]1C[C@H](Oc2ccccc2)CN1S(=O)(=O)N(C)C returned hNpr1 antagonist 3%.
Screening OC(COc1ccccc1CNCCc1ccccc1)CN1CCSCC1 (stereo unspecified) returned hNpr1 antagonist 0%.
